Compound activity as filed in PubChem.
NPYLR7 ag – agonists of mosquito NPYLR7 receptor, primary screen, cell-based, Aedes aegypti, calcium fluorescence, mosquito biting behavior | Aedes aegypti neuropeptide Y-like receptor 7 (NPYLR7) | HEK293T NPYLR7/Galpha15, GCaMP6s calcium fluorescence | activation, % at 10 µM | hit rate 0.15% among 270,000 | AID 1259423, 2018; in the data active = activation above about 40%;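 also: 0% = vehicle and 100% = reference agonist at the receptor; some compounds past the cut are filed as inactive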
NPYLR7 ag max-min – second read-out of NPYLR7 ag, no call of its own (marks repeat the call); activation, %; measured here: Max-Min RFU normalised activation; some inactives read as strong as hits;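 span of the calcium signal over five minutes; 0% = vehicle and 100% = native peptide agonist; compound fluorescence can raise it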
Starred values were filed as active, the others as inactive. Only part of the results is shown (hit frequency here may not be typical).

SMILES | NPYLR7 ag | NPYLR7 ag max-min
O=C(c1cc(S(=O)(=O)N2CCOCC2)c[nH]1)N1CCCC1c1ccsc1 (stereo not drawn) | -2 | -5
CCCCC(CC)C(=O)Nc1c(-c2ccccc2OC)nc2ccc(C)cn12 (stereo not drawn) | -3 | 2
CCOC(=O)C1(C)C(=NNc2ccc(Br)cc2)C(=O)C(=O)N1c1ccccc1 (stereo not drawn) | 2 | 1
Cc1noc(C)c1S(=O)(=O)N1CC(c2cccnc2)C1 | -2 | 17
O=C1CCc2cc(C(=O)Cn3nc(C(=O)O)c4ccccc4c3=O)ccc2N1 | -3 | 6
COCCN(Cc1csc(COc2ccccc2OC)n1)C(=O)C1CC1 | 23 | 25
O=C(CSc1nnc(CCn2ccc(=O)[nH]c2=O)o1)c1ccc(F)c(F)c1 | -2 | -3
Cc1nn(C)c(Cl)c1S(=O)(=O)N1C[C@H]2CC=CC[C@H]2C1 | -3 | -5
O=C(CCC(=O)N1CCC2(CC1)C(=O)NCN2c1ccccc1)c1ccc(CCCC2CC2)cc1 | -9 | -13
Cc1nc(NC(C)C)c2c3c(sc2n1)CCCC3 | -2 | -3
Cc1ccc(-c2cc(C(F)F)nc(N3CCCC3)n2)cc1 | 0 | 1
NC(=O)CSc1nc2cc(S(=O)(=O)N3CCCC3)ccc2n1CC1CCCO1 (stereo not drawn) | 4 | 2
CC(C)CN(Cc1cccc(OS(C)(=O)=O)c1)C(=O)c1ccc(Cl)cc1Cl | -3 | 7
CCn1c(CC2CCN(Cc3ccncc3Cl)CC2)n[nH]c1=O | 0 | 14
COc1ccccc1C(Nc1nc(C)ns1)c1nccn1C (stereo not drawn) | 2 | 1
COC(=O)C1CCN(C(=O)CC2CSc3nc(C)cc(=O)n32)CC1 (stereo not drawn) | -1 | -2
COc1ccccc1-c1cc(C(=O)O)cc(S(=O)(=O)N2CCN(C)CC2)c1 | 21 | 10
COc1ccc(-n2c(C)nc3ccc(NC(=O)CNC(=O)c4ccccc4)cc3c2=O)cc1 | -8 | -8
O=C(Nc1nc2c(s1)CCCC2)c1cc(-c2ccco2)n(C2CCS(=O)(=O)C2)n1 (stereo not drawn) | 3 | 1
O=C(NCCOc1ccc2nnc(-c3ccccc3)n2n1)c1cc(-c2cccs2)[nH]n1 | 0 | 11
O=C(CN1CCOC1=O)NC1CC(=O)N(Cc2cccc3ccccc23)C1 (stereo not drawn) | 4 | 5
CCCCCCc1ccc(C(=O)N2CCN(C(=O)CCCCSc3nnc(Cc4ccccc4)n3-c3ccccc3C)CC2C)cc1 (stereo not drawn) | -2 | 6
CCN(CC)C(=O)Oc1ccc2c(ccn2Cc2cc(Cl)cc(Cl)c2)c1-c1ccc(C#N)cc1 | 18 | 4
COc1ccc(S(=O)(=O)CC(C)C(=O)NCc2ccccc2)cc1 (stereo not drawn) | 2 | 2
CCOC(=O)C1=C(O)/C(=C\c2cccc(C)n2)SC1=Nc1ccc(Cl)cc1 | -8 | -5

The closing two compounds of the part above are carried over, then new ones follow.
SMILES | NPYLR7 ag | NPYLR7 ag max-min
COc1ccc(S(=O)(=O)CC(C)C(=O)NCc2ccccc2)cc1 (stereo not drawn) | 2 | 2
CCOC(=O)C1=C(O)/C(=C\c2cccc(C)n2)SC1=Nc1ccc(Cl)cc1 | -8 | -5
C=C(C)Cn1c(=O)c2c(nc3n2CC(C)CN3c2cccc(OC)c2)n(C)c1=O (stereo not drawn) | 7 | -1
Cc1noc(CSc2ccc(C(F)(F)F)cn2)n1 | 0 | -3
CCc1nc2ccc(C(=O)NCCCn3ccnc3)cn2c1N(C)C(=O)COc1ccccc1 | -4 | -10
Cc1nc(NCCNC(=O)Nc2ccccc2Cl)cc(N(C)C)n1 | 0 | -2
CO[C@H]1CN(Cc2nc3ccccc3n2CC(C)C)CC[C@H]1N | -4 | -7
C=CCn1c(N)cc(=O)nc1SCC(=O)N1c2ccccc2Sc2ccccc21 | 5 | 5
COc1cccc(C(=O)NC(C(=O)N2CCOCC2)C2CCN(C(=O)NC(C)C)CC2)c1 (stereo not drawn) | -6 | 11
CC1CN(S(=O)(=O)c2cccc(Cl)c2)CCN1S(=O)(=O)c1cccc(Cl)c1 (stereo not drawn) | 6 | 4
CC(=O)NC1C(Oc2ccccc2C)OC(COC(C)=O)C(OC(C)=O)C1OC(C)=O (stereo not drawn) | 0 | -1
CCC(C(=O)N(Cc1cc(NC(=O)c2ccccc2Cl)ccc1N(C)C)CC1CCCO1)c1ccccc1 (stereo not drawn) | 23 | 27
Cc1noc(C)c1S(=O)(=O)NCCOc1ccc(-c2ccco2)nn1 | -2 | -2
Cc1nn(C)c(Cl)c1C1CC(=O)Nc2n[nH]c(-c3cccs3)c21 (stereo not drawn) | 1 | -3
C=CCOn1c(=O)c(-c2ccc(Oc3ccccc3)cc2)[n+]([O-])c2ccccc21 | 0 | -9
COCCCOc1cccc(NC(=O)Cc2ccon2)c1 | 7 | 4
CC(C)c1ccc(-c2ccc3nnc(-c4ccncc4)n3c2)cc1 | -14 | -19
O=S(=O)(Nc1ncccn1)c1ccc(Nc2ncnc3ccccc23)cc1 | 6 | 6
COc1ccc(OC)c(NS(=O)(=O)c2cnc[nH]2)c1 | 12 | 9
CCOC(=O)N1CCN(C(=O)c2cc(-c3ccccc3OC)n3nc(-c4ccccc4)cc3n2)CC1 | 14 | 26
O=C(NCCC(F)(F)F)c1csc(N2CCN(Cc3ccccc3)C2=O)n1 | -4 | -7
O=c1ccc(Oc2nc(N3CCCCC3)nc(N3CCCCC3)n2)n[nH]1 | -2 | -2
CC1CCCCN1CC(=O)N1N=C(c2ccc(F)cc2)CC1c1cccn1C (stereo not drawn) | 21 | 13
C=CCN1C(=O)NC(c2cccc(Cl)c2)C2=C1CN(CC(=O)N1CCN(c3ccccn3)CC1)C2=O (stereo not drawn) | 1 | 3
O=C(CN1CCCCC1C1OCCO1)Nc1ccccc1Cl (stereo not drawn) | 7 | 2
CCOC(=O)c1c(NC(=O)c2ccccc2)sc(C(=O)Nc2ccccc2)c1C | 8 | 0
Cc1cc(S(=O)(=O)n2nnc3ccccc32)c(C)cc1Br | 1 | -1
SMILES | NPYLR7 ag | NPYLR7 ag max-min
CC(C)N1C[C@H](NCC(=O)NCCc2ccc(F)cc2)[C@@H](O)C1 | -1 | -9
O=C(c1csc(CSc2nnc(-c3ccncc3)n2-c2cccc(C(F)(F)F)c2)n1)N1CCN(c2ccc([N+](=O)[O-])cc2)CC1 | 16 | 20
O=C1CC(c2ccccc2)CC2=Nc3ccccc3NC(c3ccc(Br)cc3)C12 (stereo not drawn) | -8 | -11
CC(Sc1nc(N)nc(N)n1)C(=O)N(C)Cc1ccccc1 (stereo not drawn) | 17 | 18
CCNC(=O)NC(=O)CSc1nnc(Nc2ccc(CC)cc2)s1 | 1 | 1
CCOC(=O)C1=CN2C(C=C1)C(C(=C(C#N)C#N)C1CC1)C(c1ccccc1)C2C(=O)c1ccccc1 (stereo not drawn) | 6 | 6
CCOC(=O)/C=C(\C)N1N=C2c3cc(OC)ccc3CCC2C1c1ccc(N(C)C)cc1 (stereo not drawn) | 15 | 10
CCNC(=O)c1cnn(-c2ccccc2C)c1C | -4 | 9
COCCNC(=O)c1cc(NC(=O)C23CC4CC(CC(C4)C2)C3)ccc1N1CCC(Cc2ccccc2)CC1 | 26 | 30
Cc1ccc(OCCN(C)Cc2ccccc2O)c(C)c1 | 5 | -8
COc1ccc(-n2ccnc2C2CC(=O)Nc3cc4[nH]ncc4cc32)cc1 (stereo not drawn) | -2 | -2
COc1ccc(-c2cc3c(n(C)c2=O)CCN(C(=O)c2cn4c(C)cccc4n2)C3)c2ccc(C)nc12 | -24 | -24
Cc1cc(C)c2nc(C)cc(C(=O)N3CCNCC(CC(=O)O)C3)c2c1 (stereo not drawn) | -5 | -5
CCOC(=O)CNC(=O)CSc1ncnc2c1nnn2CC | 0 | 4
Clc1ccc(CNc2ncnc3[nH]ncc23)c(Cl)c1 | 7 | 8
CCOC(=O)c1[nH]c(C)c(C(=O)OCC(=O)N(C)C(C)C)c1C | 3 | -2
Cc1ccc(NC(=O)N(CCN2CCOCC2)CC(=O)N(Cc2ccccc2)Cc2cccs2)c(C)c1 | 8 | 9
CN(CC(=O)NCc1ccco1)C(=O)CSc1nc(N)cc(=O)[nH]1 | 0 | 1
O=C(Nc1cccc(F)c1)N1CCC(Cc2ccc(C(F)(F)F)cc2)CC1 | 6 | 5
CCC(O)C1CCN(C(=O)c2cc(COc3ccc(F)cc3F)on2)CC1 (stereo not drawn) | 23 | 15
COc1ccccc1N1CCN(C(=O)Nc2ccc(Cl)cc2)CC1 | 3 | 0
O=C1OC2(CCCCC2)OC(=O)C1=CNc1ccccc1Cl | 41 | 38
O=C(NCC1(c2ccccc2)CCOCC1)c1cn(CCC2CCCCC2)nn1 | 7 | 4
CCC(C)c1ccccc1OCC(=O)N1CCC(N2CCCC2)CC1 (stereo not drawn) | -1 | -3
COc1ccc(C(=O)N2CCSC23CCN(C(=O)Nc2cccc(OC)c2)CC3)cc1 | 4 | -4

Seven of these compounds, reformatted.
smiles,NPYLR7 ag,NPYLR7 ag max-min
NC(=O)CSc1nc2cc(S(=O)(=O)N3CCCC3)ccc2n1CC1CCCO1 (stereo not drawn),4,2
CC(C)CN(Cc1cccc(OS(C)(=O)=O)c1)C(=O)c1ccc(Cl)cc1Cl,-3,7
CCn1c(CC2CCN(Cc3ccncc3Cl)CC2)n[nH]c1=O,0,14
COc1ccccc1C(Nc1nc(C)ns1)c1nccn1C (stereo not drawn),2,1
COC(=O)C1CCN(C(=O)CC2CSc3nc(C)cc(=O)n32)CC1 (stereo not drawn),-1,-2
COc1ccccc1-c1cc(C(=O)O)cc(S(=O)(=O)N2CCN(C)CC2)c1,21,10
COc1ccc(-n2c(C)nc3ccc(NC(=O)CNC(=O)c4ccccc4)cc3c2=O)cc1,-8,-8

Entries from the list above containing bromine (three):
SMILES | NPYLR7 ag | NPYLR7 ag max-min
CCOC(=O)C1(C)C(=NNc2ccc(Br)cc2)C(=O)C(=O)N1c1ccccc1 (stereo not drawn) | 2 | 1
Cc1cc(S(=O)(=O)n2nnc3ccccc32)c(C)cc1Br | 1 | -1
O=C1CC(c2ccccc2)CC2=Nc3ccccc3NC(c3ccc(Br)cc3)C12 (stereo not drawn) | -8 | -11

The list continues.
SMILES | NPYLR7 ag | NPYLR7 ag max-min
CN(CCC1CCOCC1)c1nc2nonc2nc1N1CCCC1 | 4 | 2
COc1cccc2ccc(CN(C)Cc3cccc4ncccc34)nc12 | 16 | 7
COc1ccccc1C(=O)N(Cc1c(-c2cccc(C)c2)noc1N1CCOCC1)CC1CCCO1 (stereo not drawn) | 4 | 9
COc1ccc(-c2nc3cc(C)ccn3c2NC(=O)/C=C/c2ccccc2)cc1OC | -3 | 4
CCOC(=O)c1cc(-c2ccccc2)sc1NC(=O)c1cc(Cl)cc(Cl)c1 | 4 | 3
Cc1c(C(=O)NCC2COC(C)(C)O2)cnc2c(-c3cccc(Cl)c3)cnn12 (stereo not drawn) | 15 | 2
O=C(NCc1ccncc1)c1ccc(CSc2nnc(Cc3ccccc3)n2-c2ccccc2F)cc1 | 18 | 22
COC(=O)c1ccc(NC(=O)c2cc3ccccc3oc2=O)cc1 | -1 | -5
COc1cc(-c2nc3ccccn3c2NC2CCCCC2)ccc1OC(=O)c1ccccc1F | 1 | -1
CNc1ccc([N+](=O)[O-])cc1C(=O)Nc1ccc(F)cc1 | 12 | 5
CC(C)(C)c1cc(N2CCCC2)nc(SCc2ccc(C(=O)NCCc3ccccn3)cc2)n1 | 7 | 6
O=C1CCCN2N=C(SCC(=O)N3CCOCC3)SC2=N1 | 5 | 5
C=CCNC(=O)NC(=O)CN1CCSCC1c1ccccc1 (stereo not drawn) | 8 | 6
CC1CN(c2cc(Oc3ccccc3F)ncn2)CCN1C(=O)c1ccco1 (stereo not drawn) | 11 | 0
CC(c1ccccc1)n1c(Cc2cccnc2)nnc1SCC(=O)O (stereo not drawn) | 1 | 0
CCOC(=O)c1c(N)c(C#N)n2c1CCC2 | -1 | 6
Cc1nn(C)c(C)c1CCNc1snc(Cl)c1C#N | 6 | 1
CCC(NC(=O)c1cn2c(n1)CNCC2)c1ccc(S(C)(=O)=O)cc1 (stereo not drawn) | 2 | -2
O=C(Nc1ccnn1C1CCN(C(=O)c2cccc(Cl)c2)CC1)C1CCOC1 (stereo not drawn) | 17 | 7
CN(Cc1ccc(F)c2cccnc12)C1(CO)CCSCC1 | -7 | -8
C=C(C)CN(CC)C(=O)C=Cc1ccc(OC)c(S(=O)(=O)N2CCOCC2)c1 | -2 | 4
CCN(CC)S(=O)(=O)c1ccc2c(c1)nc(SCc1cccc(Br)c1)n2C(C)C | 15 | 7
NC(Cn1ccc2cccnc21)C(=O)O (stereo not drawn) | 5 | 1
O=C(CCc1ccccn1)Nc1cc(C(F)(F)F)ccc1O | 11 | 9

Record cards (already shown). Screens in order: NPYLR7 ag | NPYLR7 ag max-min
COc1ccccc1C(=O)N(Cc1c(-c2cccc(C)c2)noc1N1CCOCC1)CC1CCCO1 (stereo not drawn) in the list: 4 | 9
CCC(NC(=O)c1cn2c(n1)CNCC2)c1ccc(S(C)(=O)=O)cc1 (stereo not drawn) in the list: 2 | -2
